VDR inh: inhibitors of human vitamin D receptor. 400,000 tested, 0.93% active. P11473. Potency, µM, without a hit: max response, negative = inhibition, hits mostly inhibitors. VDR-SRC2-3 peptide fluorescence polarization, 2 h; active = well fitted inhibition curve with a large enough effect; also: series mostly up to about 120 µM
Target sequence (P11473 whole entry, looked up): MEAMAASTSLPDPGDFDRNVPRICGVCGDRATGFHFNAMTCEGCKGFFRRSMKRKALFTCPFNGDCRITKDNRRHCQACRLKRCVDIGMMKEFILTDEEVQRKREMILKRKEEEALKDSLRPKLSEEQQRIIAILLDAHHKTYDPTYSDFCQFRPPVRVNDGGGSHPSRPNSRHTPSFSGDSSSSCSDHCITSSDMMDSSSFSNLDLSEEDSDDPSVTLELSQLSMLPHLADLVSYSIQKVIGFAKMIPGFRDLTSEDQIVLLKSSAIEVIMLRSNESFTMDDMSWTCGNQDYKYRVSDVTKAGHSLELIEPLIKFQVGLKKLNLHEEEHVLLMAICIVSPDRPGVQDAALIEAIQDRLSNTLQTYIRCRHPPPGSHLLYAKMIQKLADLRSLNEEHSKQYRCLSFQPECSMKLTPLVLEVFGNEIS
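Measured by FP: displacement of SRC2-3 coactivator peptide from VDR by library compounds, following a two-hour ambient incubation.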
* hit, by the source's call; & = joins results of further samples; [ ] = another dose, or the depositor's remark. % is scaled to controls: 0 for no effect and ±100 for the full control effect; potency is read from the fitted curve at half-maximal effect. Only part of the results is shown; rates above refer to the full screens.

VDR inh | Molecule
10% | CCCCCc1ccc(CC(=O)Nn2c(C)nc3ccccc3c2=O)cc1
8% | Cc1c(C(=O)OC(C)C(=O)N(C)Cc2ccccc2)oc2ccccc12 (stereo not given)
9% | CN=C(Nc1ccc(Cl)cc1)c1cccc(C(F)(F)F)c1
4% | CCOc1cccc(CNCc2ccncc2)c1
31%[activator] | Cc1ccc(C(C)C)c(Oc2cnccn2)c1
19% | CCc1nn(CC(=O)NCCCN(CC)CC)c(=O)c2cc3occc3n12
-16% | Cc1sc2nc(SCC(=O)c3cccs3)n(Cc3ccco3)c(=O)c2c1C
-2% | COc1nc(-c2cnccn2)sc1C
3% | CCCCC(=O)OCC(=O)Nc1ccc(OC(F)F)cc1
-2% | CC(O)Cn1cnc2c1c(=O)n(C)c(=O)n2C (stereo not given)
-25% | COc1ccc(C(C)(C)C)cc1S(=O)(=O)N1CCN(C)CC1
-6%&7% | CCn1cc(C(=O)N2CCN(c3ccc(C(C)=O)cc3)CC2)c2cc(OC)c(OC)cc2c1=O
-26% | O=C(Nc1ccc(N2CCCC2)c(Cl)c1)c1ccccc1[N+](=O)[O-]
-21% | CC(C)C[C@H](NC(=O)c1nc[nH]c1C(=O)NCc1ccccc1)C(=O)OCc1ccccc1
5% | Cc1nnc(SCC(=O)N2CCCCCC2)n(N)c1=O
6% | O=C(Cn1nc(C(F)(F)F)c2c1CCCC2)Nc1cccc(Cl)c1
60%[activator] | Cc1ccc(C2=NN(C(=O)CCC(=O)O)C(c3cn(-c4ccccc4)nc3-c3ccc(C)cc3)C2)cc1 (stereo not given)
-4% | O=[N+]([O-])c1cnc2ccccc2c1
-2% | O=C(CN1CCCCCC1)NCc1ccccc1
-1% | COc1ccc(/C=C/C(=O)NCC2COc3ccccc3O2)cc1OC (stereo not given)
-15% | COc1ccc(CN2CCNC(=O)C2CC(=O)NCc2ccc(C)s2)c(OC)c1 (stereo not given)
3% | CCOC(=O)Nc1cc2c(c(N)n1)N=C(c1ccccc1)CN2
6% | COc1ccccc1NC(=O)N1CCC(c2nc3ccccc3o2)CC1
-1% | Nn1c(SCc2ccccc2)nnc1-c1ccccn1
4% | COc1ccc(-n2nnnc2SCC(=O)Nc2cccc(NC(C)=O)c2)cc1OC

5 of these compounds in another layout:
smiles | VDR inh
CCCCCc1ccc(CC(=O)Nn2c(C)nc3ccccc3c2=O)cc1 | 10%
Cc1c(C(=O)OC(C)C(=O)N(C)Cc2ccccc2)oc2ccccc12 (stereo not given) | 8%
CN=C(Nc1ccc(Cl)cc1)c1cccc(C(F)(F)F)c1 | 9%
CCOc1cccc(CNCc2ccncc2)c1 | 4%
Cc1ccc(C(C)C)c(Oc2cnccn2)c1 | 31%[activator]

Compounds from the list above that contain a nitro group on carbon, in the order listed:
VDR inh | Molecule
-26% | O=C(Nc1ccc(N2CCCC2)c(Cl)c1)c1ccccc1[N+](=O)[O-]
-4% | O=[N+]([O-])c1cnc2ccccc2c1

Next section.
VDR inh | Molecule
15% | CC(C)n1cc(CN2CCC(n3nccc3NC(=O)Cc3ccccc3)CC2)cn1
11% | COc1cccc(C(=O)NN2C(=O)C3C4C=CC(O4)C3C2=O)c1 (stereo not given)
-18% | COCCNC(=O)CN1C(=O)CC(C)(C)S(=O)(=O)c2ccccc21
-14% | O=C(NCc1ccc2[nH]c3c(c2c1)CCCC3)c1ccc(S(=O)(=O)N2CCCCC2)cc1
20% | COc1ccc(CCNC(=O)C(C)SCC(=O)Nc2ccc(F)cc2)cc1 (stereo not given)
-5% | CSc1ccccc1OCc1cc(C(=O)N(C)C2CCCc3ccccc32)no1 (stereo not given)
-14% | O=C(O)c1ccc2c(c1)C(=O)N(c1nccs1)C2=O
-25% | CCOC(=O)c1cn(Cc2ccccc2)c(C(=O)OC(C)(C)C)c1O
13% | COc1cccc(C(=O)COC(=O)C(C)N2C(=O)C3C4C=CC(C4)C3C2=O)c1 (stereo not given)
-14% | CCN1CCSc2ccc(C(=O)Nc3ccc(NC(C)=O)cc3)cc21
-2% | COc1ccc(-c2cn3c(C)c(C(=O)Nc4cc(NC(C)=O)ccc4OC)sc3n2)cc1
-8% | Cn1c(Cn2c(=O)sc3ccccc32)nnc1SCC(=O)N1CCCc2ccccc21
-16% | CCCCC(=O)NCCc1cc2c(C)ccc(C)c2[nH]c1=O
7% | CCn1c(SCC(=O)OC2CCCCC2)nnc1-c1ccncc1
-2% | CSc1nnc(SCC(=O)NC(=O)c2ccccc2)s1
-23% | O=S(=O)(c1ccccc1)c1cnc(-c2ccccc2)nc1N1CCCC1
18% | Cc1ccc(C(=O)CCC(=O)Nc2ccc(C)cn2)cc1
-9% | COc1ccc(CNCc2cccc(C)c2)cc1
-4% | CCC(c1nnnn1CS(=O)(=O)c1ccc(C)cc1)N1CCC(C(N)=O)CC1 (stereo not given)
6% | Nc1cc(=O)[nH]c(SCCSc2ccccc2)n1
-5% | O=C1C(Cl)=C(NCCCN2CCOCC2)C(=O)c2ccccc21
-3% | COc1cccc2sc(N(CCN(C)C)C(=O)c3ccc4c(c3)CCCC4)nc12
10% | Cc1cc(Nc2ccc(F)cc2F)nc(-n2nc(C)cc2C)n1
-22% | CCOc1ccc(NC(=O)CN(C)C(=O)c2c(C)nn(Cc3ccccc3Cl)c2C)cc1OCC
17% | C[C@@H]1COC(=O)O1
12% | C=CCOC(=O)C1=C(C)NC(SCC)=C(C#N)C1c1ccc(Cl)cc1 (stereo not given)
-9% | CC(Cc1cccs1)NC(=S)Nc1ccccc1 (stereo not given)
-14% | COc1ccc(/C(C)=N/NC(=S)Nc2cc(C)ccc2C)cc1
1% | COc1ccc(-c2cc(=O)oc3c(O)c(O)ccc23)cc1
-8% | Cc1nccn1C(c1ccccc1)c1ccccc1
5% | COCCCNC(=O)c1nn(-c2ccc(C)cc2)nc1CO
9% | CCOC(=O)c1ccc2c(c1)N(CC(=O)Nc1ccc(C)cc1C)C(=O)c1ccccc1S2
-26% | CCCN(CCC)C(=O)C[n+]1cccc(/C=N/O)c1
-23% | Cc1ccc(C)c(NC(=O)c2cccc(Oc3ccc([N+](=O)[O-])cc3Cl)c2)c1
-4% | O=C(c1ccc(CN2CCc3ccccc3C2)cc1)N1CCN(c2ccc(F)cc2)CC1
6% | Cc1oc(-c2ccc(C(=O)NCc3ccccc3)cc2)nc1CN1CCc2ccccc21
-4% | O=C(COc1ccccc1[N+](=O)[O-])Nc1cccc(C(=O)Nc2ccccc2C(=O)O)c1
8% | CCN(C(=O)CCn1cnc2onc(-c3ccc(F)cc3)c2c1=O)c1ccc(OC)cc1
-27% | COc1ccc(C(=O)OCC(=O)Nc2nc3c(F)c(F)c(F)cc3s2)cc1OC
-13% | CC(=O)c1sc(NC(=O)CCCOc2ccc(Cl)cc2)nc1C
5% | Cc1ccc(NC(=S)NC(=O)/C=C/c2ccc(Cl)cc2)cc1
-2% | NC(=O)COC(=O)c1ccc2c(c1)C(=O)N(Cc1ccco1)C2=O
6%&-9% | CCCN(CCc1ccccc1)C1CCc2c(O)cccc2C1 (stereo not given)
-12% | C[C@H](CO)N1C[C@H](C)[C@@H](CN(C)S(C)(=O)=O)Oc2ccc(NC(=O)Nc3ccc(C(F)(F)F)cc3)cc2C1=O
-11% | O=C(c1ccc(CNc2c(N3CCCC3)c(=O)c2=O)cc1)N1CCc2ccccc2C1
-23% | CC(C)COP(=O)(OCC(C)C)C(Nc1ccccc1)c1ccc(F)cc1 (stereo not given)
-3% | COc1ccc(Oc2ccccc2/C=C/C(=O)O)cc1
-7% | CCCCn1c(N)c(N2CCOCC2)c(=O)n(CC(=O)NCCc2ccccc2)c1=O
-4% | Cn1ncc2c(N3CCC(Cc4ccccc4)CC3)ncnc21
-8% | O=C(NC1(C(F)(F)F)N=C(c2ccccc2)NC1=O)c1ccccc1 (stereo not given)

Copied from the list:
VDR inh result of `O=C(c1ccc(CN2CCc3ccccc3C2)cc1)N1CCN(c2ccc(F)cc2)CC1` : -4%
VDR inh result of `Cn1ncc2c(N3CCC(Cc4ccccc4)CC3)ncnc21` : -4%
VDR inh result of `Cc1nccn1C(c1ccccc1)c1ccccc1` : -8%
VDR inh result of `C[C@H](CO)N1C[C@H](C)[C@@H](CN(C)S(C)(=O)=O)Oc2ccc(NC(=O)Nc3ccc(C(F)(F)F)cc3)cc2C1=O` : -12%
VDR inh result of `C=CCOC(=O)C1=C(C)NC(SCC)=C(C#N)C1c1ccc(Cl)cc1` (stereo not given) : 12%

Later entries.
VDR inh | Molecule
-11% | COc1ccc(S(=O)(=O)N2CCC(C(=O)Nc3ccc(Oc4ccccc4)cc3)CC2)cc1OC
-3% | Cn1c(NC(=O)c2ccc(F)cc2)nc2ccccc21
7% | CCOC(=O)CC(=O)CSc1nc(N)c(C#N)c(-c2ccc(F)cc2)c1C#N
9% | COc1cc(O)oc1C=Nc1ccc(C(=O)O)cc1
-7% | COc1ccc(NC(=O)Nc2ccc(OCC(=O)N3CCOCC3)cc2)cc1OC
-8% | Cc1ccc2[nH]c(=O)c(CN(CC3COCCO3)C(=O)Nc3ccccc3C)cc2c1 (stereo not given)
8% | Cc1cccc(-c2nc(SCC(=O)Nc3cccc(C(F)(F)F)c3)n3[nH]c(=O)cc3n2)c1
-2% | NC(=O)CC(NC(=O)Cc1cccc2ccccc12)c1ccc(NCc2ccccn2)c([N+](=O)[O-])c1 (stereo not given)
-5% | Cc1nc(CC(=O)NNS(=O)(=O)c2ccc(F)c(Cl)c2)cs1
-14% | COC(=O)c1cc(C(=O)Nc2nnc(C3CC3)s2)cc([N+](=O)[O-])c1
-1% | Cc1ccc(NC(=O)c2sc(N)nc2-c2ccc([N+](=O)[O-])cc2)c(C)c1
15% | O=[N+]([O-])c1cccc(-c2nc(-c3ccncc3)no2)c1
-13% | Cc1ccc(NC(=O)Cn2nc([N+](=O)[O-])c(Br)c2C)cc1C
-2% | CN(C)CCNC(=O)COc1cccc(Cl)c1
12% | C[C@H]1CC[C@@H]2[C@@H](C)[C@H]3[C@H](C[C@H]4[C@@H]5CC=C6C[C@@H](O[C@]7(O[C@H]8O[C@@H](C)[C@@H](O)[C@@H](O)[C@@H]8O)C[C@@H](O[C@@H]8O[C@H](CO)[C@@H](O)[C@H](O)[C@@H]8O)[C@@H](O)[C@H](CO)O7)CC[C@]6(C)[C@H]5CC[C@@]34C)N2C1
-6% | Nc1c(-c2ccccc2)c(CN2CCOCC2)nn1-c1ccc(F)cc1
1% | COc1ccccc1N1CCN(S(=O)(=O)c2cc(Br)cnc2N)CC1
16% | Cc1c(C(=O)O)sc2nc3n(c(=O)c12)CCC3
-5% | COc1ccc(CN2CCCC(C(=O)c3ccc(SC)cc3)C2)cc1Cn1cccn1 (stereo not given)
-1% | COc1ccccc1OCc1ccc(C(=O)N2CCN(C)CC2)o1
-4% | COc1ccc(F)cc1S(=O)(=O)N1CCCN(S(=O)(=O)c2cc(F)ccc2OC)CC1
21% | CC(C)c1ccc(C(C(=O)NC2CCCCC2)N(C(=O)c2csnn2)C2CC2)cc1 (stereo not given)
-5% | COC(=O)[C@@H](NC(=O)NCc1cccs1)C(C)C
3% | CC(=O)Nc1c(C(=O)N2CCCCCC2)cnn1-c1ccccc1
-1% | CC(=O)Nc1ccc(CN2CCCC(CCC(=O)NCc3ccccc3F)C2)cc1 (stereo not given)
-2% | CC1CCCN(CCCOc2ccccc2-c2ccccc2)C1 (stereo not given)
11% | O=C(CSC1=NCCN1)NC1CCCCCC1
-8% | O=c1c2c3c(sc2nc(NCCO)n1-c1ccccc1)CCCC3
-10% | COc1ccccc1C(=O)NC(=O)CSc1cccc[n+]1[O-]
-10% | CCC1(c2ccc(F)cc2)NC(=O)N(CC(=O)NC2CCCCCC2)C1=O (stereo not given)
-29% | FC(F)(F)c1cccc(NC(=S)NC(c2ccccc2)c2ccccc2)c1
-18% | Cc1noc(C)c1-c1ccc2ncnc(NCCN3CCOCC3)c2c1
-9% | CCOC(=O)c1cccnc1SC(CC)C(=O)NCc1ccco1 (stereo not given)
0% | CC1Cn2c(nnc2-c2ccccc2O)S1 (stereo not given)
-18% | COc1n[nH]c(C(=O)Nc2cc(F)ccc2C)c1[N+](=O)[O-]
-14% | COCCNC(=O)CSc1nc2sc(C)c(C)c2c(=O)n1-c1ccccc1
25% | Cc1cc(C)n(S(=O)(=O)c2ccc(C)c(C)c2)n1
17% | CN1C(=O)c2ccccc2Sc2ccc(NC(=O)NCc3ccccc3Br)cc21
11% | COC(=O)COc1cccc(NC(=O)C(c2ccccc2)c2ccccc2)c1
7% | CCOC(=O)c1cc(-c2ccccc2)n(CC(=O)NCc2ccc(C)cc2)c1C
6% | CCOc1ccccc1NC=C1C(=O)OC2(CCCCC2)OC1=O
0% | CN(C(=O)c1ccc(F)cc1)c1ccccc1C(=O)NCc1ccccc1
3% | Cc1cccc(CN2CCN(Cc3cccc4nonc34)CC2CCO)n1 (stereo not given)
-26% | CCCN(C(=O)COC(=O)COc1c(C)cccc1C)c1c(N)n(Cc2ccccc2)c(=O)[nH]c1=O
-18% | CN(C)C(=O)c1ccc(NC(=O)COc2cccc(Oc3ccccc3)c2)cc1
-4% | CC(C)(C)[C@H]1COC(=O)[C@H](NC(=O)OCC2c3ccccc3-c3ccccc32)C/C=C\C[C@@H](CC(=O)N[C@H](CO)Cc2ccccc2)C(=O)N1
-4% | CCN(CC)S(=O)(=O)c1ccc2c(c1)N(CC(=O)N1CCN(c3cccc(C(F)(F)F)c3)CC1)C(=O)CO2
-3% | COC(=O)CC1=Nc2ccccc2NC(=O)C1
-2% | COC(=O)Cc1ccc(NC(=S)Nc2cccc(C)n2)cc1
-1% | CN(C[C@@H](Cc1cccc2ccccc12)N(C[C@H](Cc1ccccc1)N(CCc1ccccc1)N=O)N=O)N=O
2% | S=C(NCCSCc1c(Cl)cccc1Cl)Nc1ccccc1

Screening results deposited in PubChem BioAssay by National Center for Advancing Translational Sciences (NCATS).
